# Source: PubChem (Broad Institute)
# ID4 SMM: binders of human ID4 protein. P47928. small molecule microarray, Flag-ID4 binding, fluorescence F/B. calls only. 31,000 tested, 1.2% active;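 active = spot signal over background at p below 0.07 in all four prints; compounds were printed on slides so no solution concentration is given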;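 also: a binder raises fluorescence above local background on the spot; about 2 pmol printed per array spot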
# Target sequence (P47928 whole entry, looked up): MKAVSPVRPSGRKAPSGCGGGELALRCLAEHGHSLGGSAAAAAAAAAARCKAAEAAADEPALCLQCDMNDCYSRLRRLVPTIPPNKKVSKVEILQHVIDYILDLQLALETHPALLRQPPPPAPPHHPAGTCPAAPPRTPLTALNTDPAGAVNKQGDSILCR
# Calls only; i = inactive. These rows are one share of the data; rates above refer to the full screens.
SMILES,ID4 SMM
COC(=O)c1scc(C)c1NS(=O)(=O)c1ccc2c(c1)CCO2,i
Cn1c(SCc2nc3ccccc3c(=O)[nH]2)nnc1-c1cc2cc(Br)ccc2o1,i
C[C@H](CO)N1C[C@H](C)[C@@H](CN(C)Cc2cccnc2)Oc2ncc(-c3ccccc3)cc2C1=O,i
COc1ccc(OC)c(NC(=O)C(=O)NCc2ccco2)c1,i
N#Cc1ccccc1NC(=O)COc1ccccc1[N+](=O)[O-],i
CCCN(C)C[C@@H]1Oc2ncc(C#CC3CCCCC3)cc2C(=O)N([C@@H](C)CO)C[C@H]1C,i
COC(=O)Nc1sc(C)c(C)c1C(=O)NCc1cccnc1,i
COc1cccc(C(=O)COc2cccc(NC(=O)c3ccc(Cl)c(Cl)c3)c2)c1,i
C[C@@H]1CN([C@H](C)CO)S(=O)(=O)c2ccc(C#CC3CCCC3)cc2O[C@@H]1CN(C)CC1CC1,i
CC(C)NC(=O)N(C)C[C@@H]1Oc2ccc(N(C)C)cc2C(=O)N([C@H](C)CO)C[C@@H]1C,i
CCOc1ccc2nc(NCc3cc(OC)c(OC)cc3OC)sc2c1,i
CC(=O)Nc1ccc(NC(=O)C(C)n2nc([N+](=O)[O-])c(Br)c2C)cc1 (centres undefined),i
O=[N+]([O-])c1cccc(NC(=S)NCc2cn(-c3ccccc3)nc2-c2ccccc2)c1,i
COc1cc(S(=O)(=O)NCCN2CCOCC2)ccc1Br,i
COc1ccc(S(=O)(=O)NCC(=O)Nc2cccc(C)c2C)cc1OC,i
O=C(COc1ccc(Br)cc1)Nc1cccc(-c2nc3ncccc3o2)c1,i
COc1ccc(OC)c(S(=O)(=O)N2CCC(C(=O)Nc3ccccc3F)CC2)c1,i
CCOC(=O)NC(=O)CSc1nnc(C)s1,i
COC(=O)COc1cccc(NC(=O)c2ccccc2F)c1,i
Cc1ccc(S(=O)(=O)CCN2CCC(C(F)(F)F)CC2)cc1,i
O=C(C[C@H]1C=C[C@H](NC(=O)C2CC2)[C@@H](CO)O1)NC1CCC1,i
Cc1cc(Cl)c(S(=O)(=O)N2CCN(c3ccccn3)CC2)cc1OCC(N)=O,i
C[C@@H]1CN([C@H](C)CO)C(=O)c2cc(C3=CCCCC3)cnc2O[C@@H]1CN(C)Cc1cccc(F)c1,i
Cc1ccc(N(CC(=O)N2CCCCCC2)S(=O)(=O)c2c(C)noc2C)cc1,i
Cc1cc(C(=O)Nc2ccccc2C(=O)O)ccc1NC(=O)COc1cccc(C)c1C,i
COc1ccc([N+](=O)[O-])cc1NC(=O)COc1ccc(C(C)(C)C)cc1Br,i
Cc1ccc(-c2cnc3c(c2)C(=O)N([C@H](C)CO)C[C@H](C)[C@H](CN(C)CC2CCCC2)O3)cc1,i
CCc1ccccc1NC(=O)Cn1c(-c2nonc2N)nc2ccccc21,i
C[C@@H]1CN([C@@H](C)CO)C(=O)c2cc(C#Cc3cccnc3)cnc2O[C@@H]1CN(C)C(=O)CC1CC1,i
CN(C)C(CC(=O)Nc1cccc(Cl)c1Cl)C(=O)O (centres undefined),i
C[C@H](CO)N1C[C@H](C)[C@H](CN(C)Cc2ccccc2)Oc2cc(C3=CCCCC3)ccc2S1(=O)=O,i
O=C(Cn1cnc2scc(-c3ccc(F)cc3)c2c1=O)Nc1ccc(F)cc1,i
C[C@H]1CN([C@@H](C)CO)C(=O)c2cc(C#CC3CC3)cnc2O[C@@H]1CN(C)C(=O)CC1CC1,i
COC(=O)c1ccc(NC(=O)CSc2nnc(-c3cccnc3)n2-c2ccccc2)cc1,i
CCCC#Cc1cnc2c(c1)C(=O)N([C@H](C)CO)C[C@@H](C)[C@H](CN(C)C(=O)CCN1CCCCC1)O2,i
CC(C)CC#Cc1cnc2c(c1)C(=O)N([C@H](C)CO)C[C@@H](C)[C@H](CN(C)CC1CCOCC1)O2,i
COc1cccc(NC(=O)N[C@H]2CC[C@H](CC(=O)Nc3ccc(-c4ccccc4)cc3)O[C@@H]2CO)c1,i
CC1=CCC(C(=O)O)C(C(=O)Nc2ccccc2NC(=O)c2ccc(C(F)(F)F)cc2)C1 (centres undefined),i
CCc1ccc(OCC(=O)Nc2sc3c(c2C(=O)OC)CCC3)c(Br)c1,i
CC(C)NC(=O)N[C@H]1C=C[C@@H](CC(=O)NC2Cc3ccccc3C2)O[C@H]1CO,i
CCc1ccc(-n2cc3c(c(C#N)c2=N)CC(C)(C)CC3=O)cc1,i
C[C@@H]1CN([C@@H](C)CO)C(=O)c2cc(C#CC(C)(C)O)cnc2O[C@H]1CN(C)Cc1cccc(F)c1,i
Cc1ccc(OCC(=O)Nc2ccc3c(c2)oc2ccccc23)cc1[N+](=O)[O-],i
COCC#Cc1cnc2c(c1)C(=O)N([C@@H](C)CO)C[C@H](C)[C@H](CN(C)C(=O)c1ccc3c(c1)OCO3)O2,i
COc1ccccc1CN1C(=O)c2ccccc2[C@](Cc2ccccc2I)(C(=O)NCc2ccccc2)[C@@H]1c1ccc(CO)cc1,i
Cc1cccc(C)c1NC(=O)CN(c1cccc(F)c1)S(C)(=O)=O,i
C[C@H](CO)N1C[C@H](C)[C@H](CN(C)C(=O)C2CCC2)Oc2ncc(/C=C/c3ccccc3)cc2C1=O,i
O=C(Nc1ccc2c(c1)OCO2)N[C@H]1C=C[C@@H](CC(=O)N2CCN(c3ccccc3)CC2)O[C@H]1CO,i
CN(CC(=O)Nc1ncn[nH]1)S(=O)(=O)c1ccc2ccccc2c1,i
COc1cccc(C2C(C(=O)c3ccco3)C(=O)C(=O)N2CCN(C)C)c1OC (centres undefined),i
O=C(O)CNS(=O)(=O)c1cccc2nsnc12,i
O=C(C[C@H]1CC[C@H](NC(=O)c2ccc(F)cc2)[C@@H](CO)O1)NCCc1ccccc1,i
CN(C)CCCNC(=O)C[C@H]1CC[C@H](NC(=O)Cc2cccnc2)[C@@H](CO)O1,i
COc1ccccc1C#Cc1cnc2c(c1)C(=O)N([C@H](C)CO)C[C@@H](C)[C@@H](CN(C)C)O2,i
O=C(NC1CCCCC1)N[C@@H]1CC[C@@H](CC(=O)N2CCOCC2)O[C@@H]1CO,i
O=C(C[C@H]1C=C[C@H](NC(=O)CCN2CCCCC2)[C@H](CO)O1)NCc1ccc(Cl)c(Cl)c1,i
COc1ccccc1CNC(=O)C[C@H]1C[C@@H]2c3cc(NC(=O)c4ccc5c(c4)OCO5)ccc3O[C@@H]2[C@@H](CO)O1,i
COc1cccc(CNC(=O)C[C@@H]2CC[C@H](NC(=O)C3CCC3)[C@H](CO)O2)c1,i
CC(NS(=O)(=O)c1cccc(Cl)c1)C(=O)Nc1ccc(Br)cc1F (centres undefined),i
COc1ccc(S(=O)(=O)N(C)CC(=O)Nc2ccccc2C(F)(F)F)cc1,i

# Looked up by structure from the list above:
SMILES,ID4 SMM
COc1ccc(S(=O)(=O)NCC(=O)Nc2cccc(C)c2C)cc1OC,i
O=C(C[C@H]1C=C[C@H](NC(=O)CCN2CCCCC2)[C@H](CO)O1)NCc1ccc(Cl)c(Cl)c1,i
N#Cc1ccccc1NC(=O)COc1ccccc1[N+](=O)[O-],i

# (next part)
SMILES,ID4 SMM
COc1c(Cl)ccc(Cl)c1C(=O)Nc1ccc(S(=O)(=O)Nc2cc(C)nc(C)n2)cc1,i
O=C(C1CCCO1)N1N=C(c2c(-c3ccccc3)c3cc(Cl)ccc3[nH]c2=O)CC1c1ccco1 (centres undefined),i
Cn1c(SCC(=O)Nc2ccc(F)c(F)c2)nnc1-c1ccccn1,i
CCCN(C)C[C@@H]1Oc2cc(C#Cc3cccc(F)c3)ccc2S(=O)(=O)N([C@@H](C)CO)C[C@@H]1C,i
Cc1ccc(S(=O)(=O)N(C)Cc2nc(-c3ccncc3)no2)cc1,i
O=C(C[C@H]1C=C[C@@H](NS(=O)(=O)c2cccc(F)c2)[C@H](CO)O1)N1CCCCC1,i
C[C@H]1CN([C@@H](C)CO)C(=O)c2cc(/C=C/c3ccccc3)cnc2O[C@H]1CN(C)C(=O)CN1CCOCC1,i
Cc1[nH]c2ccccc2c1C(=O)CSc1n[nH]c(N)n1,i
C[C@H]1CN([C@@H](C)CO)C(=O)c2cc(C3=CCCC3)cnc2O[C@H]1CN(C)Cc1cccc(F)c1,i
CCC(=O)N1CCN(c2ccc(Cl)cc2NC(=O)COc2cc(C)c(Cl)c(C)c2)CC1,i
C[C@@H]1CN([C@H](C)CO)C(=O)c2cc(Br)cnc2O[C@H]1CN(C)CC1CCOCC1,i
CCCN(C)C[C@H]1Oc2cc(-c3ccc(C)cc3)ccc2S(=O)(=O)N([C@@H](C)CO)C[C@H]1C,i
O=C(CSc1nc2ccccc2c(=O)n1CC1CCCO1)c1ccc(Br)cc1 (centres undefined),i
COc1ccccc1NC(=O)CSc1nnc(-c2ccc(F)cc2)n1C,i
CCc1ccccc1NC(=O)CSc1nnc(N)s1,i

# Reprinted from the part before: 3 compounds, followed by the next part.
SMILES,ID4 SMM
O=C(CSc1nc2ccccc2c(=O)n1CC1CCCO1)c1ccc(Br)cc1 (centres undefined),i
COc1ccccc1NC(=O)CSc1nnc(-c2ccc(F)cc2)n1C,i
CCc1ccccc1NC(=O)CSc1nnc(N)s1,i
CCOC(=O)COc1cccc(-c2nc3ccccc3s2)c1,i
C[C@H]1CC(O)C23COC(=O)[C@@H]2CCC[C@@H]3[C@@]12C[C@@H](c1ccoc1)OC2=O (some centres undefined),i
O=C(CSc1nc2ccc([N+](=O)[O-])cc2[nH]1)Nc1ccc2c(c1)OCCO2,i
C[C@H]1CN([C@@H](C)CO)S(=O)(=O)c2ccc(C#CC3CC3)cc2O[C@H]1CN(C)Cc1ccccc1,i
Cc1cc(C)c(OCCCCNCCO)c(C)c1,i
C[C@H]1CN([C@@H](C)CO)C(=O)c2cc(C#CC3(O)CCCC3)cnc2O[C@H]1CN(C)S(C)(=O)=O,i
Cc1ccc(-c2noc(CN(C(C)C)S(=O)(=O)c3ccccc3)n2)cc1,i
O=C(N[C@H]1CC[C@@H](CC(=O)N2CCN(c3ccccc3)CC2)O[C@H]1CO)c1ccncc1,i
CC1(C)Cc2nc3sc4c(SCC(=O)N5CCOCC5)ncnc4c3cc2CO1,i
COc1ccccc1-c1cnc2c(c1)C(=O)N([C@@H](C)CO)C[C@H](C)[C@@H](CN(C)Cc1ccncc1)O2,i
CCCNC(=O)N(C)C[C@@H]1Oc2cc(C#CCOC)ccc2S(=O)(=O)N([C@H](C)CO)C[C@H]1C,i
Cc1c(/C=C2\SC(=Nc3ccccc3)N(C3CCCC3)C2=O)c2ccccc2n1CC(N)=O,i
C[C@@H]1CN([C@H](C)CO)C(=O)c2cc(C3=CCCCC3)cnc2O[C@H]1CN(C)Cc1cccnc1,i
O=C(C[C@@H]1C=C[C@@H](NC(=O)c2ccncc2)[C@H](CO)O1)NCCc1ccncc1,i
O=C(c1ccccc1)N1Cc2ccccc2C[C@]2(N=C(c3ccc(OCCCO)cc3)O[C@@H]2c2ccccc2)C1=O,i

# Overlap with the part before: 5 compounds; new compounds follow.
SMILES,ID4 SMM
CCCNC(=O)N(C)C[C@@H]1Oc2cc(C#CCOC)ccc2S(=O)(=O)N([C@H](C)CO)C[C@H]1C,i
Cc1c(/C=C2\SC(=Nc3ccccc3)N(C3CCCC3)C2=O)c2ccccc2n1CC(N)=O,i
C[C@@H]1CN([C@H](C)CO)C(=O)c2cc(C3=CCCCC3)cnc2O[C@H]1CN(C)Cc1cccnc1,i
O=C(C[C@@H]1C=C[C@@H](NC(=O)c2ccncc2)[C@H](CO)O1)NCCc1ccncc1,i
O=C(c1ccccc1)N1Cc2ccccc2C[C@]2(N=C(c3ccc(OCCCO)cc3)O[C@@H]2c2ccccc2)C1=O,i
O=c1[nH]c(SCc2n[nH]c(=S)n2-c2ccccc2)nc2sc3c(c12)CCC3,i
O=C(c1ccco1)N1CCN(C(=O)c2cccc3c2C(=O)N(C2CCCCC2)C3)CC1,i
COc1ccc(CN2C(=O)C(O)(CC(=O)c3ccc4c(c3)CCCC4)c3ccccc32)cc1OC (centres undefined),i
CCCC#Cc1ccc2c(c1)O[C@H](CN(C)C(=O)c1ccccc1)[C@H](C)CN([C@@H](C)CO)S2(=O)=O,i
O=C(CSc1nc2ccccc2s1)c1cc2ccccc2oc1=O,i
CC(=O)c1c(C)nn(CC(O)COc2ccc(C(=O)c3ccc(Cl)cc3)cc2)c1C (centres undefined),i
Cc1ccc2cccc(OCc3ccc(Br)cc3)c2n1,i
COc1cc(OC)c(C2=NOC(C(=O)NCc3cccnc3)C2)cc1Cl (centres undefined),i
COc1cc(NC(=O)COc2ccc3ccccc3c2Br)c(OC)cc1Cl,i
c1ccc(-c2nnc(SCc3nc4ccccc4s3)n2-c2ccccc2)cc1,i
NCCCc1nc2cc3ccccc3cc2[nH]1,i
C[C@H]1CN([C@@H](C)CO)C(=O)Cc2cc(NC(=O)Cc3ccccc3)ccc2O[C@@H]1CN(C)C,i
COc1ccc(NC(=O)CSc2ncnc3scc(-c4ccccc4)c23)c([N+](=O)[O-])c1,i
Cc1cc(Br)ccc1NC(=O)CSc1nnc(N)s1,i
c1ccc2c(c1)OCC(c1nnc3sc(-c4cnccn4)nn13)O2 (centres undefined),i
CC(=O)N(C)C[C@H]1Oc2cc(C#CC(C)(C)O)ccc2S(=O)(=O)N([C@@H](C)CO)C[C@H]1C,i
C[C@H]1CN([C@@H](C)CO)C(=O)c2cc(NC(=O)C3CCCCC3)ccc2O[C@@H]1CN(C)C,i
O=C(C[C@H]1CC[C@@H](NC(=O)c2cccc(F)c2)[C@H](CO)O1)NCc1ccccc1,i
CCCN(C)C[C@@H]1Oc2ncc(-c3cccc(F)c3)cc2C(=O)N([C@H](C)CO)C[C@@H]1C,i
C[C@H]1CN([C@@H](C)CO)S(=O)(=O)c2ccc(C3=CCCCC3)cc2O[C@@H]1CN(C)Cc1ccccc1,i
CN(C)c1ccc2c(c1)[C@@H]1C[C@@H](CC(=O)NCc3cc(F)ccc3F)O[C@H](CO)[C@@H]1O2,i
C[C@H](NC(=O)C[C@H]1CC[C@@H](NC(=O)CN2CCOCC2)[C@H](CO)O1)c1ccccc1,i
C=CC[C@]1(C(=O)NCc2ccccc2)COC(c2ccc(OCCCO)cc2)=N1,i
